RE007 growth inh: less growth of the S. pombe RE007 Vpr strain. S. pombe RE007 Vpr strain, BacTiter-Glo ATP luminescence, 24 h; control for the full effect not named in the record. AID 651644. Potency, µM (doses to about 92.2 µM), without a hit: top-dose activity change, negative = less growth. 0.21% of 360,000 active; active = well fitted falling curve with a large enough effect; inconclusive = small, poorly fitted or top-dose-only effect; inactive = no such curve, though single readings can be large or run the other way;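 further: on the % scale 0 is the no-effect control and ±100 the full control effect; nearly all actives have a fitted effect of over 50% in size; the assay follows cell death caused by Vpr and the record does not say whether a fall means rescue or toxicity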
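Fission yeast RE007 carrying one integrated HIV-1 vpr copy, seeded at OD 0.01 in PMG+AL medium with 23 nL pinned compound. Grown 24 h at 30 degrees; viability read by BacTiter-Glo luminescence after 5 min.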
Cruzain inh Det: cruzain (T. cruzi) inhibition with detergent; P25779; purified cruzain, Z-FR-AMC fluorescence, 0.01% Triton; Potency, µM, for inactives: max response, negative = inhibition, hits mostly inhibitors; 0.43% of 200,000 active; AID 1478; active means well fitted curve in the direction sought with a large enough effect; inconclusive means small, poorly fitted or top-dose-only effect, or another doubt; inactive means no such curve, though single readings can be large; an effect the other way counts as inactive or inconclusive;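 further: plate controls were neutral wells for no effect and buffer without enzyme for full effect; nearly all actives have a fitted effect of over 40% in size; top concentration of the series not given in the record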
Target sequence (P25779 123-467 limits assumed): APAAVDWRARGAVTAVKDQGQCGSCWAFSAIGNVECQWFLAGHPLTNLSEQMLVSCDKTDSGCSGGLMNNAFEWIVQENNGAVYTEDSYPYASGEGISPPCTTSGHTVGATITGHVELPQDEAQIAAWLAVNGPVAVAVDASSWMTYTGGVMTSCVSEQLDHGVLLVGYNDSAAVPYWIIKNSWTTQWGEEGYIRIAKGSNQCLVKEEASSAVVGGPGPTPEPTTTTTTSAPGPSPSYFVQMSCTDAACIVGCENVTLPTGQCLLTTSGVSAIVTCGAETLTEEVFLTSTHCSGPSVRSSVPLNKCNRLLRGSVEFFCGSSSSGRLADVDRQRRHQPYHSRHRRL
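Detergent-containing arm of a paired screen for aggregation-based inhibition: 0.01% Triton X-100 present. Cruzain at 1.5 nM cleaved 2 uM Z-FR-AMC at pH 5.5 with 5 mM DTT; AMC fluorescence gain over 60 s measured activity.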
Marburg entry inh: Marburg virus entry inhibition; Marburg virus pseudotyped entry inhibition, cell reporter; control for the full effect not named in the record; about a third of the inactives were read at about 46 µM; Potency, µM (series often up to 37.8 µM), inactives show top-dose activity change, negative = inhibition, most hits filed as inhibitors; 1.8% of 300,000 active; AID 540276; active = well fitted inhibition curve with a large enough effect; inconclusive = small, poorly fitted or top-dose-only effect, or effect the other way; inactive = flat fitted curve, though single readings scatter; tested in HEK293 cells; about a fifth of its hits are not listed in these tables; further: on the % scale 0 is the no-effect control and ±100 the full control effect; luciferase read-out
Cruzain noTriton: inhibitors of Trypanosoma cruzi cruzain without detergent; P25779; purified cruzain, Z-FR-AMC fluorescence, no detergent; Potency, µM, for the others: max response, negative = inhibition, hits mostly inhibitors; 2.3% of 200,000 active; AID 1476; active means well fitted curve in the direction sought with a large enough effect; inconclusive means small, poorly fitted or top-dose-only effect, or another doubt; inactive means no such curve, though single readings can be large; an effect the other way counts as inactive or inconclusive;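 further: plate controls were enzyme without inhibitor for no effect and buffer without enzyme for full effect; nearly all actives have a fitted effect of over 40% in size; top concentration of the series not given in the record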
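Detergent-free condition (0.00005% Triton X-100) in acetate buffer pH 5.5 with DTT. 1.5 nM enzyme and compound were pre-mixed 15 min, then 2 uM Z-FR-AMC substrate added; reaction progress from fluorescence change between first and third reads (60 s).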
Lassa entry inh: blocks Lassa virus binding to or entry into cells; AID 540256; Potency, µM (titrated, usually from 37.9 µM), for inactives: at the top dose activity change, negative = inhibition, actives largely listed as inhibitors; 1.2% of 300,000 active; Lassa virus pseudotype entry inhibition, cell reporter; control for the full effect not named in the record; active means well fitted inhibition curve with a large enough effect; inconclusive means small, poorly fitted or top-dose-only effect, or effect the other way; inactive means flat fitted curve, though single readings scatter; tested in HEK293 cells; further: on the % scale 0 is the no-effect control and ±100 the full control effect; nearly all actives have a fitted effect of over 50% in size; luciferase read-out
StopGo reporter: FMDV 2A StopGo reporter, luciferase signal; 1.2% of 410,000 active; human cells with a luciferase reporter of 2A StopGo recoding; control for the full effect not named in the record; Potency, µM (top dose mostly 57.9 µM), for inactives: at the highest dose signal change, negative = less light; active = well fitted falling curve with a large enough effect; inconclusive = small, poorly fitted or top-dose-only effect; inactive = no such curve, though single readings can be large or run the other way; tested in HEK293T cells; further: on the % scale 0 is the no-effect control and ±100 the full control effect; nearly all actives have a fitted effect of over 45% in size; luciferase light after 4 h
NS1 inh: inhibitors of influenza NS1 protein function; S. cerevisiae slowed by influenza A NS1, growth recovery by OD600; Potency, µM (titrated, usually from 46.1 µM), without a hit: at the highest dose activity, positive = more growth; 0.4% of 270,000 active; AID 2326; further: actives are rising curves; nearly all actives have a fitted effect of over 50% in size
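OD600 was taken as the measure of yeast growth restored by compound in an NS1-expressing S. cerevisiae strain. Cells had been washed out of glucose medium and diluted 1:100 into galactose -URA medium, pH 6.0.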
SARS PLpro yeast: blocks SARS-CoV papain-like protease in a yeast assay | Potency, µM (top dose mostly 32.9 µM), without a hit: at the highest dose activity, positive = growth rescue | AID 485353 | 0.19% of 330,000 active | S. cerevisiae expressing SARS-CoV PLpro, growth rescue; control for the full effect not named in the record; further: 0% is about no effect; nearly all actives have a fitted effect of over 55% in size; growth read by luminescence after 48 h
The depositor's hits bear a star; ? = inconclusive; . = not tested or not shown; & = joins results of further samples; [ ] = another dose, or the depositor's remark. Unless noted, the call rests on the fitted dose curve; in most records, active means well fitted rising curve with a large enough effect; inconclusive means small, poorly fitted or top-dose-only effect; inactive means no such curve, though single readings can be large or run the other way. Potency means the concentration at half of the fitted maximal effect.

SMILES	RE007 growth inh	Cruzain inh Det	Marburg entry inh	Cruzain noTriton	Lassa entry inh	StopGo reporter	NS1 inh	SARS PLpro yeast
Cc1cc(NC(=NC2CC2)c2ccccc2)n(-c2ccccc2)n1	-25%	.	-5%[46.1 µM]	.	-1%	-9%	.	-1%
O=C(NCc1cccnc1)c1ccc(Br)s1	17%	.	.	.	.	-8%	-3%	4%
OC(COCC(F)(F)C(F)(F)C(F)(F)C(F)F)Cn1c2ccc(Cl)cc2c2cc(Cl)ccc21 (stereo not given)	-9%	-4.9%	?	-8%	?	?	-60%	-94%
O=C(CSc1nc2c([nH]c3ccccc32)c(=O)n1-c1ccccc1F)Nc1ccccc1C(F)(F)F	.	-5.1%	.	?	?	-18%	.	.
CCOc1ccc(C(=S)N2CCN(C)CC2)cc1	1%	.	-5%[46.1 µM]	.	0%	8%	.	7%
CSc1nc(C)cc(Oc2ccc(=O)n(C)n2)n1	-5%	-1.5%	7%	4%	7%	13%	19%	4%
Cc1cc(C(=O)Nc2ccc(C#N)cc2)on1	0%	.	.	.	.	20%	-1%	-3%
Cn1c2ccccc2c2c(C(=O)O)cn(C3CCCC3)c(=O)c21	-2%	-6.1%	.	-2%	.	-25%	-6%	3%
COc1cccc(-c2ccc(SCC(=O)NC3CCCC3)nn2)c1	5%	.	1%	.	?	4%	2%	-10%
CCOc1ccc(NC(=O)CN(C)C(=O)c2c(C)nn(-c3ccccc3)c2Cl)cc1OCC	2%	.	-15%	.	-4%	-15%	.	5%
Cc1c(C(Nc2ccccn2)c2ccccc2)c(=O)n(-c2ccccc2)n1C (stereo not given)	-8%	2.3%	22%	-15%	18%	-18%	11%	-26%
Cc1cc(C(=O)COC(=O)Cc2ccc(Cl)cc2)c(C)n1C	-15%	.	14%	.	13%	27%	.	-35%
CCOC(=O)c1c(C)n(C)c2ccc(OC)c(NS(=O)(=O)c3ccc(Cl)s3)c12	2%	0.6%	18%	4%	-12%	16%	-70%	-10%
Cc1nn(-c2ccccc2)c(N)c1C(c1ccc(C(C)C)cc1)c1c(C)nn(-c2ccccc2)c1N	-10%	-8.9%	?	5%	?	-24%	24%	3%
CCn1c2ccccc2c2cc(N=C3SC(CC(=O)Nc4ccccc4)C(=O)N3C)ccc21 (stereo not given)	-11%	-4.7%	?	-28%	-11%	-10%	8%	0%
Clc1nssc1=Nc1ccc(Br)cc1	?	.	-15%	.	6%	?	.	-20%
CCOc1ccc(N2C(=O)/C(=C\c3ccc(O)c(OC)c3)S(=O)(=O)C2c2cccc([N+](=O)[O-])c2)cc1 (stereo not given)	-10%	.	-8%	.	0%	?	.	1%
Cc1ccccc1Cn1c(NC2CCCC2)nc2c1c(=O)[nH]c(=O)n2C	5%	.	.	.	.	-17%	9%	-7%
S=c1[nH]nc(C2CCCCC2)n1/N=C/C(Cl)=C\c1ccccc1	-27%	-4.0%	?	2%	-25%	0%	6%	-8%
COc1ccc(NC(=O)CC2C(=O)N(c3ccc(Cl)cc3)C(=S)N2CCc2ccccn2)cc1 (stereo not given)	2%	-12%	?	4%	?	-23%	-3%	4%
CCN(CC)C(=O)Cn1c(=O)cc(C)c2c(C)nn(-c3ccc(C)cc3)c21	.	0.2%	.	-9%	?	1%	.	.
COc1c(C)cccc1C(=O)Nc1ccc(CN2CCCCC2)cc1	-4%[3.69 µM]	4.9%	1%	3%	25%	-6%	-2%	-7%
Cn1ccnc1SCC(=O)NCC(=O)Nc1ccc(F)c(F)c1F	-7%	.	10%	.	3%	-12%	.	0%
COc1ccc(O)c(/C=N/NC(=O)c2cc(=O)[nH]c3ccccc23)c1	14%	.	.	.	.	-15%	-6%	-1%
Cc1scc(C(=O)N/N=C/c2ccc(OCC(C)C)cc2)c1C	11%	-3.9%	?	-11%	?	-30%	-18%	-7%
CC(C)(C)NC(=O)C(c1ccco1)N(C(=O)c1ccc(CN2CCOCC2)o1)c1ccccc1 (stereo not given)	-21%	-1.4%	?	-5%	-4%	-5%	-7%	10%
CCCCOc1ccccc1C(=O)Nc1nonc1-c1ccccc1	.	-4.8%	1%[46.1 µM]	-12%	3%[46.1 µM]	-29%	.	.
CCO[C@@H]1OC(C(=O)N2CCN(Cc3ccccc3)CC2)=C[C@H](c2ccc(C(F)(F)F)cc2)[C@H]1CCCO	-11%	.	.	.	.	?	-5%	0%
CCCCCn1c2c(c(=N)c3ccccc31)CCC2	-22%	.	?	.	?	0%	-9%	-3%
COc1ccc(C(=O)NCC(c2ccco2)N2CCc3ccccc3C2)cc1 (stereo not given)	10%	.	-11%	.	-5%	-7%	.	1%
O=C(CN1CCN(CC(=O)Nc2ccccc2F)CC1)Nc1cccc(F)c1	5%	.	0%[46.1 µM]	.	-4%[46.1 µM]	1%	0%	2%
COc1cccc(N2CCN(C(=O)c3cccc(-n4c(C)nc5cccnc54)c3)CC2)c1	.	1.0%	.	4%	-28%[46.1 µM]	28µM*	.	.
O=C(CN1C(=O)COc2ccc(S(=O)(=O)N3CCCC3)cc21)N1CCN(c2ccccc2)CC1	.	-2.7%	.	10%	2%[46.1 µM]	-16%	.	.
COc1ccc(CCNC(=O)CCn2c(=O)c3ccccc3n(CC(=O)Nc3ccccc3F)c2=O)cc1OC	.	-1.4%	-11%[46.1 µM]	-9%	4%[46.1 µM]	11%	.	.
Cc1ccnc(SCc2ccc([N+](=O)[O-])cc2)n1	-11%	.	26%[46.1 µM]	.	?	13%	2%	-2%
COc1ccc(-c2csc(NC(=O)c3ccccc3F)c2C(=O)O)cc1	6%	.	.	.	.	11%	-70%	-6%
O=C(Nc1ccc(Br)cc1)c1ccc(F)c(S(=O)(=O)NCc2cccs2)c1	20%	-10.0%	?	-26%	4µM*	-1%	15%	-36%
COC(=O)c1ccc(CNC(=O)Cn2cnnn2)cc1	-8%	.	.	.	.	-2%	2%	1%
Cc1ccc(/C=c2\sc3nc(-c4ccco4)nn3c2=O)o1	-23%	-3.8%	-1%	-7%	6%	0%	?	-14%
Cc1ccc(C)c(OCC(=O)NNC(=O)C2CC2)c1	13%	.	?	.	13%[46.1 µM]	34%[activator]	10%	-8%
CN1C(=O)Cc2cc(S(=O)(=O)N3CCN(c4ccc(Cl)cc4)CC3)ccc21	14%	-0.9%	21%&21%[46.1 µM]	-11%	-8%&23%[46.1 µM]	-18%&-16%	15%	-4%
C/C(=N\NC(=O)c1ccoc1C)c1ccc(Br)s1	-13%	.	.	.	.	30%[activator]	9%	-4%
O=c1c2ccccc2sn1-c1cc(S(=O)(=O)N2CCOCC2)ccc1N1CCOCC1	1%	1.2%	?	-2%	?	.	10%	8%
NC(=O)C1CCN(Cc2cccc(OCc3ccccc3)c2)CC1	-1%	.	-16%	.	-1%	-7%	-8%	6%
CN1C[C@@H]2C[C@@H](c3cccn3-c3ccccn3)N3CCC[C@@]23C1=O	-19%	.	-1%[46.1 µM]	.	13%[46.1 µM]	1%	-3%	-1%
CN(C)C(CNC(=O)C1CCCN(C(=O)c2ccc(Cl)cc2)C1)c1ccco1 (stereo not given)	-15%	-1.2%	12%	-4%	9%	-3%	-4%	-4%
N#Cc1ccc(CSCC(=O)O)cc1	-2%	-4.0%	-1%	7%	5%	.	-16%	-2%
CCOC(=O)CC1C(=O)NCCN1C1CCCC1 (stereo not given)	0%	.	13%	.	26%	-21%	2%	-1%
COc1ccc(NC(=O)c2cc3c(=O)n(Cc4cccs4)ccc3nc2C)cc1	.	-5.7%	.	26%	-10%[46.1 µM]	-24%	.	.
CN(Cc1ccc(F)cc1)C(=O)c1cccc(S(=O)(=O)N2CCN(Cc3ccccc3)CC2)c1	-8%	.	?	.	?	?	.	3%
CC(c1ccccc1)N1CC(C(=O)NC2CCCC2)CC1=O (stereo not given)	-3%	4.1%	6%	-1%	22%	12%	2%	5%
COc1cc2nc(SCC(N)=O)n(CCC3=CCCCC3)c(=O)c2cc1OC	-10%	8.6%	-23%	?	?	1%	-2%	0%
CCOC(=O)C1CC(CN2C(=O)c3ccccc3C2=O)OC1=O (stereo not given)	15%	.	-3%[46.1 µM]	.	-5%[46.1 µM]	-2%	.	.
Nc1ncc(-c2ccccc2)c(-c2ccc(O)cc2O)n1	3%	.	?	.	5%[46.1 µM]	?	3%	3%
COc1ccc(N(CC(=O)NCCSc2ccccn2)S(=O)(=O)c2ccccc2)c(OC)c1	-13%	.	-14%[46.1 µM]	.	-22%	1%	-8%	13%
CCCCNC(=O)C1COc2ccccc2O1 (stereo not given)	14%	0.6%	1%	-2%	2%	.	0%	-13%
CC(C)(C)C(=O)N1CCN(c2ncnc3scc(-c4ccccc4)c23)CC1	4%	.	?	.	?	-27%	1%	-2%
CCCCC(=O)Nc1nnc(SCc2cc(=O)n3cc(C)ccc3n2)s1	.	2.1%	.	-7%	19%[46.1 µM]	-11%	.	.
CCOc1ccc(-n2c(=O)c3c4c(sc3n(CC(=O)Nc3cccc(C(F)(F)F)c3)c2=O)CCCCC4)cc1	.	-4.8%	?	-17%	5%[46.1 µM]	-30%	.	.
CCc1nc(CN2CCCC(C(=O)c3ccc4c5c(cccc35)CC4)C2)c(C)[nH]1 (stereo not given)	-10%	.	?	.	-29%	?	3%	6%

Continued:
SMILES	RE007 growth inh	Cruzain inh Det	Marburg entry inh	Cruzain noTriton	Lassa entry inh	StopGo reporter	NS1 inh	SARS PLpro yeast
COc1ccc(N(CC(=O)NC2CCCC2)C(=O)Cn2nnc(-c3ccc(C)cc3)n2)cc1	-2%	-3.9%	?	3%	-12%	-8%	14%	-9%
CC(=O)c1ccc(Oc2ncnc3sccc23)cc1	5%	.	0%[46.1 µM]	.	?	43%[activator]	.	1%
O=C(COC(=O)C1CCC1)NCc1ccc(Cl)cc1Cl	18%	.	14%	.	4%	-6%	.	-9%
CN(C)CCN1C(=O)C(=O)/C(=C(/O)c2ccc3c(c2)OCCO3)C1c1ccccn1 (stereo not given)	-12%	.	9%	.	13%	16%	4%	1%
